Screening data from PubChem.
Bead autofluor: counter-screen for toxin protease inhibitors: compound fluorescence | compound autofluorescence counterscreen, microsphere flow cytometry; stronger effect = higher value | fluorescence intensity (test concentration not listed) | 360,000 compounds, 3.1% hits;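 active = at least 3 SD above the mean of all compounds, about 16000 in these data; inconclusive = too few beads counted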;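 also: 100 nL of 1 mM stock went into each well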
ugtP null kill: kills S. aureus RN4220 lacking UgtP. growth inhibition, % (test concentration not listed). 330,000 compounds, 0.54% hits. S. aureus RN4220 ugtP deletion, OD600 growth, 16 h; some inactives read as strong as hits. AID 1259309;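 active = z-score under -3 and OD600 up to 0.15 on both plates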;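 also: plate controls were untreated wells for no effect and antibiotic for full effect; wells of about 80 µL received 100 nL stock; the first replicate is given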
BJeLR lethal: kills HRASV12-expressing BJeLR cells. BJeLR (HRASV12) viability, CellTiter-Glo ATP luminescence, 48 h; reference of the scale not given here. inhibition, % (test concentration not listed). 300,000 compounds, 0.17% hits. AID 1554;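 active = replicate mean above 50%; inconclusive = above 50% but judged a plate artefact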;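 also: 50 nL library stock added to about 25 µL; numbers are from one replicate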
Sa RN4220 lethal: S. aureus RN4220 growth inhibition. AID 1259311. OD600, 16 h. 330,000 compounds, 0.33% hits. inhibition, % (test concentration not listed);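 active = z-score of -3 or lower and OD600 up to 0.18 on both plates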;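 also: plate controls were untreated cells for no effect and reference antibiotic for full effect; stock transfer was 100 nL into about 80 µL; one replicate is shown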
Mtb hypoxia inh: inhibitors of hypoxia-regulated fluorescent reporter in Mycobacterium tuberculosis. M. tuberculosis hypoxia-regulated fluorescent reporter, fluorescence. fluorescence inhibition, % (test concentration not listed). 300,000 compounds, 0.1% hits. AID 1159583;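 active = 35 to 45% if threefold the growth effect, above 45% if 1.5-fold the growth effect; inactive = the rest, general growth blockers included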;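 also: wells of about 50 µL received 100 nL stock; 0% = vehicle wells and 100% = reference inhibitor wells; whole bacteria with a GFP reporter of the hypoxia response; strong numbers were not always called active; many hits fall short of the cut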
PrP UTR inh: inhibition of PrP 5' UTR reporter expression; cell-based PrP 5' UTR mRNA reporter, plate reader; inhibition, % (test concentration not listed); 340,000 compounds, 0.35% hits;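 active = every replicate at 50% or more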;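 also: 0 = median of the neutral control wells; tested in H4 reporter cells; numbers are from one replicate; inactives centre near -14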
Mtb hypoxia inh growth: second read-out of Mtb hypoxia inh, no call of its own (marks repeat the call); growth inhibition, %; measured here: M. tuberculosis growth (absorbance);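 0% = vehicle and 100% = reference antibiotic; read after six days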
Starred values were filed as active, the others as inactive; u = inconclusive; x = not tested or not shown.

Preview:
SMILES	Bead autofluor	ugtP null kill	BJeLR lethal	Sa RN4220 lethal	Mtb hypoxia inh	Mtb hypoxia inh growth	PrP UTR inh
C=CCNc1nnc(Cc2ccc(C(C)C)cc2)c(=O)[nH]1	5687	x	2	x	x	x	-3
CCOc1ccccc1N1CCN(Cc2cccc(OC)c2O)CC1	17870*	0	2	2.6	1	10	-6
CN(C(=O)c1ccc2c(=O)n3c(nc2c1)CCCCC3)c1ccccc1F	4202	-2	-3	2.9	0	-2	-13
NS(=O)(=O)c1ccc(CCNc2ccccc2[N+](=O)[O-])cc1	3667	16	5	4.3	12	6	-21
Cc1ccc(NC(=O)COc2coc(CN3CCN(c4ccccc4)CC3)cc2=O)cc1	5137	10	4	3.4	8	4	-13
CC(C)(C)N1CC(C(=O)Nc2ccc(S(=O)(=O)N3CCCCC3)cc2)CC1=O (stereo not drawn)	4308	7	7	3.8	0	-2	-17

Main list, repeating the preview:
SMILES	Bead autofluor	ugtP null kill	BJeLR lethal	Sa RN4220 lethal	Mtb hypoxia inh	Mtb hypoxia inh growth	PrP UTR inh
C=CCNc1nnc(Cc2ccc(C(C)C)cc2)c(=O)[nH]1	5687	x	2	x	x	x	-3
CCOc1ccccc1N1CCN(Cc2cccc(OC)c2O)CC1	17870*	0	2	2.6	1	10	-6
CN(C(=O)c1ccc2c(=O)n3c(nc2c1)CCCCC3)c1ccccc1F	4202	-2	-3	2.9	0	-2	-13
NS(=O)(=O)c1ccc(CCNc2ccccc2[N+](=O)[O-])cc1	3667	16	5	4.3	12	6	-21
Cc1ccc(NC(=O)COc2coc(CN3CCN(c4ccccc4)CC3)cc2=O)cc1	5137	10	4	3.4	8	4	-13
CC(C)(C)N1CC(C(=O)Nc2ccc(S(=O)(=O)N3CCCCC3)cc2)CC1=O (stereo not drawn)	4308	7	7	3.8	0	-2	-17
COc1ccccc1CNC(=O)C1CCC1	2298	5	8	-1.2	-1	8	-9
COc1ccc(NC(=O)c2ccco2)cc1NC(=O)c1cccc(F)c1	4431	5	-9	2.7	1	12	-18
Cc1ccc2nc(-c3ccc(NC(=S)NC4CC(C)(C)NC(C)(C)C4)cc3)sc2c1	5205	95*	8	100*	9	5	-44
Cc1ccc(C)c(C(C)NC(=O)Cc2cccs2)c1 (stereo not drawn)	3054	15	-4	1.5	8	15	-19
CCCN1C(=O)/C(=N\OCC(=O)NC23CC4CC(CC(C4)C2)C3)c2ccccc21	1974	x	1	x	x	x	-13
Cc1ccc(-c2nn(C)c(=O)c3ccccc23)cc1CNC(=O)CN1CCOCC1	2559	-5	4	2.9	4	10	2
Cc1onc(-c2ccccc2)c1C(=O)NN=Cc1ccc(O)c([N+](=O)[O-])c1	x	0	x	1.7	9	11	x
CCOc1cc(NC(=O)c2ccccn2)c(OCC)cc1NC(=O)c1ccc(Cl)cc1	3888	3	13	13	9	3	-25
CCN1CCN(c2cc(C)c3cc(NC(=S)NCCCOC)ccc3n2)CC1	4119	-6	-17	1.3	5	2	-1
COc1ccc(NS(=O)(=O)c2cc(NC(=O)c3cccs3)ccc2N2CCOCC2)cc1	4714	14	23	23	-4	-8	-20
CCCCS(=O)Cc1ccccc1 (stereo not drawn)	2912	-3	-9	-2.6	11	15	-11
O=C1N(Cc2cccc(Cl)c2)C[C@@H]2C[C@@H](c3cccc4ncccc34)N3CCC[C@@]123	4913	-2	-7	1.4	10	4	-25
COc1ccccc1N(CN1CCCC1=O)C(=O)c1c(F)cccc1Cl	u	9	10	7.6	2	-4	-8
Cc1cc(C)cc(N(CC(=O)NC2CCCCC2)C(=O)CNC(=O)c2ccco2)c1	3591	5	-3	1.0	5	-6	-15
O=C(Nc1ccc(N2CCN(C(=O)c3cccs3)CC2)cc1)c1cccc(F)c1	2981	3	2	2.4	-2	-1	-9
Cc1ccc(SSc2cc(C)ccc2N)c(N)c1	2919	11	22	1.8	5	6	-48
O=C(Oc1ccc(C=NO)cc1)c1ccccc1	x	2	x	9.4	2	13	x
CCOc1ccc(-c2c(C(=O)NN=Cc3ccncc3)nnn2-c2nonc2N)cc1	x	8	x	4.9	6	1	x
CC(NC(=O)OCc1ccccc1)C(=O)NC(Cc1c[nH]c2ccccc12)C(=O)O (stereo not drawn)	x	3	x	5.6	1	0	x
Cc1cccc(NS(=O)(=O)c2ccc3c(c2)NC(=O)CC(=O)N3)c1	3290	14	0	11	-11	-5	-11
COc1ccc(C2C(C(=O)NCc3ccccn3)c3cc(OC)c(OC)cc3C(=O)N2C)cc1 (stereo not drawn)	6667	6	x	-0.5	5	4	-22
Cc1[nH]c2ccccc2c1/C=N\NC(=O)CNc1ccc2c(c1)OCO2	2422	x	9	x	x	x	-19
O=C(CSc1ncc(-c2ccccc2)n1C1CCCC1)N1CCc2ccccc21	8448	4	0	-0.2	-2	7	-69
C[N+]12CCC(CC1)C(=C(c1ccccc1)c1ccccc1)C2	2107	6	11	0.4	-4	3	-18
O=C(CN1CCN(C2CCCCC2)CC1)c1c[nH]c2ccccc12	2845	10	-13	-0.7	x	x	-10
CCOC(=O)C(=O)N(CC)C1CCS(=O)(=O)C1 (stereo not drawn)	6477	1	-7	2.2	-1	1	-28
COc1ccccc1-c1coc2c(CN3CCN(C)CC3)c(O)ccc2c1=O	4075	2	5	0.4	-3	-12	-25
COc1ccc(NC(=O)CSc2nnc(C)n2C2CCCCC2)cc1	4703	-3	1	3.6	12	0	-8
O=C(COc1coc(CN2CCCc3ccccc32)cc1=O)Nc1ccc([N+](=O)[O-])cc1	5916	0	-15	1.2	-12	-5	10
CCn1ccc(C(=O)Nc2ccc3c(c2)CCC3)n1	5207	-4	-13	1.4	-1	4	-26
Cc1cc(N2CCCC2)c(C)cc1C=O	22088*	-9	3	15	9	15	-29
Cc1c(OC(C(=O)O)c2ccccc2)ccc2c3c(c(=O)oc12)CCC3 (stereo not drawn)	3577	1	9	3.6	-10	2	-22
O=C(c1ccccc1)N1CCCCC(Sc2nnc3ccccn23)C1=O (stereo not drawn)	12705	2	10	1.4	1	9	-11
CC(C)(C)NC(=O)NC(=O)COC(=O)COc1ccc(Cl)cc1Cl	2592	1	-6	3.5	9	6	-1
COC(=O)c1cn(NC(=O)c2ccc(OC)c([N+](=O)[O-])c2)c(=O)c2ccccc12	3291	1	-4	-0.6	8	8	-23
CCc1c(C)nc2ncnn2c1N1CCC(C(=O)NCc2cccc(OC)c2)CC1	7788	12	11	3.9	9	5	-12
CCc1nnc(NS(=O)(=O)c2ccc(Nc3ccc([N+](=O)[O-])c4nonc34)cc2)s1	4690	-4	6	6.0	39*	7.7*	-8
CC(=O)c1c(C)n(CC2CCCO2)c2ccc(O)cc12 (stereo not drawn)	9458	2	0	5.2	-1	0	-14
O=C(Nc1cnc2sccn2c1=O)c1ccccc1Cl	5641	8	2	-2.8	9	5	-29
Cc1ccc(S(=O)(=O)NCC2CCC(C(=O)N3CCC4(CC3)OCCO4)CC2)cc1 (stereo not drawn)	3630	8	6	2.3	x	x	-9
CCOc1ccc(NC(=O)CN(C)C(=O)c2cc(C)on2)cc1OCC	5651	5	-2	-1.4	5	7	9
NC(=O)CC(NC(=O)Cc1ccc(Br)cc1)c1ccc(NCCc2ccccc2F)c([N+](=O)[O-])c1 (stereo not drawn)	4444	-13	0	3.0	3	17	-16
O=S(=O)(CCc1nc2ccccc2o1)c1ccc(Cl)cc1	4490	1	-18	5.1	x	x	-10
CC(=O)Nc1ccc(NC(=O)c2ccccc2S(=O)(=O)c2ccccc2[N+](=O)[O-])cc1	2508	4	-14	3.5	9	4	-36
Cc1ccc(OCc2nnc(SC(C)C(=O)O)n2Cc2ccccc2)cc1 (stereo not drawn)	4982	0	2	4.2	3	6	-18
O=C1CSC(=S)N1Cc1cccs1	3581	9	x	16	5	13	-11
COc1ccc(CNC(=O)CSc2nnc(NC(=O)C3CC3)s2)cc1	3716	10	-1	2.8	-2	-12	-14
CC(CC(=O)Nc1cc(C)ccn1)=NNC(=O)c1ccc(C(C)(C)C)cc1	x	1	x	-2.1	0	-1	x
O=C1/C(=C\c2cccnc2)CN(Cc2ccccc2)C/C1=C\c1cccnc1	x	-3	23	4.3	54*	36*	x
COc1ccc(CO[C@@H]2O[C@H](CO)[C@@H](O)[C@H](O)[C@H]2NC(C)=O)cc1OC	4018	8	2	3.3	-13	1	-25
CN(CC1CCCO1)S(=O)(=O)c1ccc(C(=O)Nc2ccc([N+](=O)[O-])cc2)cc1 (stereo not drawn)	6076	0	4	1.8	8	6	-19
CNC(=O)c1cc2ncc(C(F)(F)F)cc2s1	2677	0	1	1.1	-2	15	-26
CC1CCCC(NS(=O)(=O)c2cccc3nsnc23)C1C (stereo not drawn)	3937	-2	-5	1.9	0	-1	-11
CCC(=O)N(CCc1ccccc1)Cc1cc2cccc(C)c2[nH]c1=O	4516	-1	2	4.3	4	11	-14

The results go on:
SMILES	Bead autofluor	ugtP null kill	BJeLR lethal	Sa RN4220 lethal	Mtb hypoxia inh	Mtb hypoxia inh growth	PrP UTR inh
Cc1c(C(=O)N2CCN(CCc3ccccn3)CC2)oc2ccc(Cl)cc12	4209	14	0	2.2	5	-1	7
C/C(=N\NC(=S)Nc1ccc(C)cc1)c1cccc(N)c1	3277	x	2	x	x	x	-29
Cn1nnnc1SCC(=O)NCCc1ccc(Cl)cc1	3184	-6	-7	-11	20	-12	-7
COc1ccccc1N(C(=O)c1snc(C(N)=O)c1N)C(C(=O)NCc1ccccc1)c1ccc(O)cc1 (stereo not drawn)	3785	9	-8	2.5	16	7	-6
O=C(COC(=O)c1ccc(F)c([N+](=O)[O-])c1)NC(=O)NCc1ccccc1	8608	3	x	-2.4	15	9	-30
NC(=O)NC(=O)COC(=O)CCCSc1nc2ccccc2s1	4471	-11	10	2.2	2	-6	-9
COc1ccc(-c2cnc(SCCNC(=O)c3ccc4c(c3)OCO4)[nH]2)cc1	u	6	-8	5.1	7	-1	-14
O=C(NCc1cccnc1)c1ccc(Br)o1	5317	5	1	3.4	-2	9	-4
CCN(c1ccccc1)S(=O)(=O)c1ccc(Cl)c(C(=O)N2CCCC2)c1	5301	0	x	2.5	3	1	x
O=C(COc1ccccc1)N(Cc1nnc(-c2ccccc2Cl)o1)C1CC1	5742	12	6	3.3	5	6	-15
COc1ccc(C2N=C(Nc3ccc(C)cc3)Nc3nc(C)cc(=O)n32)cc1 (stereo not drawn)	3770	0	3	1.9	-7	6	-3
CCOc1ccc(S(=O)(=O)N2CCC(C(=O)NCc3cccnc3)CC2)cc1C	4392	15	-6	4.5	4	1	7
O=C(CCCN1C(=O)c2ccccc2C1=O)N1CCC(c2ccccc2)C1 (stereo not drawn)	20922*	-8	7	5.4	15	9	-25
O=[N+]([O-])c1ccc(/C=N/Nc2nc(-c3ccccc3)c3cc(Br)ccc3n2)o1	5344	x	3	x	x	x	-15
Cn1c(COc2ccccc2)nnc1SCC(=O)Nc1ccc(N2CCOCC2)cc1	5342	7	-9	2.5	2	0	-9
CCOc1ccc(CCNC(=O)CSc2cc(=O)n(C)c3cc(Cl)ccc23)cc1OCC	2471	1	-9	4.4	2	-1	7
CCn1cc(/C=C(\NC(=O)c2ccccc2OC)C(=O)NCCCn2ccnc2)c2ccccc21	5013	3	1	3.2	6	4	-18
O=c1c2ccccc2nc2ccccn12	4455	2	-10	3.1	-6	3	-15
CCOC(=O)c1ccccc1NC1c2ccccc2C(=O)N1c1cc(C)ccn1 (stereo not drawn)	6566	7	-10	16	-5	8	-8
COc1cccc(OCC(=O)NNC(=S)Nc2ccc(Cl)cc2Cl)c1	4234	-3	5	7.2	18	15	-7
Cc1cccc(CSCCNC(=O)CCSc2ccccc2)c1	2454	11	-5	-3.1	9	-6	-5
Cc1ccsc1C(=O)OCC(=O)NCCc1ccccc1	3619	2	x	8.9	7	0	-43
Cc1cc(O)c(C2(O)C(=O)Nc3ccccc32)cc1C (stereo not drawn)	3884	4	-12	0.3	5	3	-19
CC(C)(C)OC(=O)N1CCN(C(=O)c2[nH]cnc2C(=O)Nc2ccc(Cl)cc2)CC1	3539	3	x	0.0	-1	12	-13
